# Screens: PubChem BioAssay, several laboratories
# PABP FP inh = PABP-poly(A) binding inhibition. P11940. inhibition, % at 35 µM. AID 2014. actives 1% (n = 290,000). PABP-poly(A) RNA binding, fluorescence polarization;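 active = 50% or more with normal probe brightness, or confirmed in later tests; about a fifth of its hits are not listed in these tables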;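 note: calls also rest on retests at 20 µM and on dose response follow-up; controls were probe without protein and protein plus probe with vehicle; some compounds called inactive have numbers as strong as hits; many hits fall short of the cut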
# Target sequence (P11940 whole entry, looked up): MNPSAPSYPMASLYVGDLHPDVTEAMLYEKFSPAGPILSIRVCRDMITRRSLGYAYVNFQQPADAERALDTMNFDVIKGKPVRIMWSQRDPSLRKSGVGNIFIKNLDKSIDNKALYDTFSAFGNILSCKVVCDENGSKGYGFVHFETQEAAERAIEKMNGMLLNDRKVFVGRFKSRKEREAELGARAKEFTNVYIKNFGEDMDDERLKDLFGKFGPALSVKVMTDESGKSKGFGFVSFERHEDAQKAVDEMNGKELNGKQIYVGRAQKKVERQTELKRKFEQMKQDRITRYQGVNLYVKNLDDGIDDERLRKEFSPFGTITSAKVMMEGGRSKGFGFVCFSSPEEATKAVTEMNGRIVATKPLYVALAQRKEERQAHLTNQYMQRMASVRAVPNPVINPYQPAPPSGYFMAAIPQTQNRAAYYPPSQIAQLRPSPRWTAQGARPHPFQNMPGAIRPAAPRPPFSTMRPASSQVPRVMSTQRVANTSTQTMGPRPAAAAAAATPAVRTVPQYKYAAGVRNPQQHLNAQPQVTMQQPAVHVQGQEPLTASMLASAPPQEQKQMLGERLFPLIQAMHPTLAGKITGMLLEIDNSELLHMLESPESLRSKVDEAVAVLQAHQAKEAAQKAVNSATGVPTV
# eIF4H inh = inhibitors of RNA binding by human eIF4H. eIF4H fluorescence polarization binding assay. inhibition, % at 35 µM. actives 0.94% (n = 290,000). AID 2012;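 active = 50% or more with normal probe brightness, or confirmed in later tests; about a fifth of its hits are not listed in these tables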;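 note: calls also rest on retests at 20 µM and on dose response follow-up; 0% = protein and probe with vehicle and 100% = probe without protein; strong numbers were not always called active; many hits fall short of the cut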
# CSC inhib = blocks cancer stem cells. inhibition, % at 7.5 µM. actives 1.1% (n = 300,000). cancer stem cell-like cells viability, luminescence;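 active = mean at 75% or more and at least half the replicates too; tested in HMLE shEcad cells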;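 note: 0% = median of negative and 100% = median of positive control wells; the first replicate is given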
# Yeast UUG start = alters start codon recognition fidelity in yeast; S. cerevisiae UUG-firefly luciferase reporter, luminescence/redox ratio; activity score, % at 18.7 µM; actives 0.13% (n = 350,000); AID 602363;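 active = replicate mean at a twofold rise or more, about +100% in these data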;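 note: firefly luciferase made from a UUG start codon reports start codon fidelity; reporter light over untreated wells divided by growth signal over untreated wells; some hits fall short of that in this replicate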
# MT1-MMP act inh = blocks activation of human MT1-MMP; GFP/RFP ratio change, % at 20 µM; P50281; HT1080 RFP-PRO-GFP cells, GFP/RFP ratio fluorescence, overnight; percent of plate control window, DMSO zero; AID 651647; actives 0.061% (n = 360,000);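 active = GFP/RFP ratio change of at least 30% with cell ATP level not reduced by more than half and red fluorescence within 50% of control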; note: strong numbers were not always called active
#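 Test system: HT1080 RFP-PRO-GFP cells; Benchmarks: DMSO and RFP-L50D-GFP cell wells; Timing: cells overnight before dosing, compound overnight, 37 °C, 5% CO2; Compound: one 20 µM compound dose with 1% DMSO; Read-out: GFP/RFP fluorescence ratio.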
# Env fusion inh = HIV envelope-mediated fusion inhibition. HeLa-JRFL Env/CEM21 cell fusion, luciferase. inhibition, % at 12.3 µM. actives 1.1% (n = 360,000). AID 651610;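 active = mean replicate inhibition score of at least 50 and every replicate individually at or above 50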;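 note: 0% = plate neutral controls and 100% = maraviroc near 300 nM; one replicate is shown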
# Rce1 inhib = yeast Ras-converting enzyme inhibition | Q03530 | yeast membranes, quenched prenylated peptide cleavage fluorescence | calls only | actives 0.27% (n = 290,000);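 active = fall in fluorescence gain of 50% or more versus controls, with final raw signal at or below 3038400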;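 note: plate controls were neutral control wells for no effect and wells lacking membranes for full effect; tested at 10 µM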
# eIF4H inh retest = also measured in eIF4H inh; calls as there; inhibition, %; compound at 20 µM; confirmation average;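 mean of two retest wells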
# PABP FP inh retest = also measured in PABP FP inh; calls as there; inhibition, %; compound at 20 µM; confirmation repeats;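 mean of two retest wells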
# MT1-MMP act inh RFP = second read-out of MT1-MMP act inh, no call of its own (marks repeat the call); RFP signal change, %; measured here: RFP expression control read;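 0 = vehicle wells; hits needed this value within 50% of zero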
# * = called active by the depositor; i = inactive; . = no result given; + = active, no number; & = joins results of further samples; [ ] = another dose, or the depositor's remark. An excerpt; count on the stated rates, not on these rows.
SMILES,PABP FP inh,eIF4H inh,CSC inhib,Yeast UUG start,MT1-MMP act inh,MT1-MMP act inh RFP,Env fusion inh,Rce1 inhib,others
Cc1nn(CC(=O)NCCc2cccs2)c(=O)c2cc3ccccc3n12,-10,4,4,-6,3,4,3,i,
CC(C)(C)N1[C@@H](CC(=O)O)c2cc(C(F)(F)F)ccc2S1(=O)=O,.,.,-4,-16,0,-2,-15,i,
COc1ccc(S(=O)(=O)N(C)[C@H]2C[C@H]3c4cc(Oc5ccccc5C)ccc4CCN3C(=O)[C@H]2[C@H](C)O)cc1,.,.,.,-8,-7,-10,-213,.,
COCCN1C(=O)/C(=C/c2ccc(Oc3ccc([N+](=O)[O-])cn3)c(OC)c2)SC1=Nc1ccccc1,-13,-6,3,-17,2,-3,42,+,
CC1=CC(C)(C)N=C(Nc2nc(C)c3cc(C)cc(C)c3n2)N1,-8,-4,4,-6,-2,-9,-61,i,
CCO[C@@H]1OC(C(=O)N2CCN(Cc3ccc4c(c3)OCO4)CC2)=C[C@H](C2CCCCC2)[C@H]1CCCO,2,8,7,-2&14,-1,-7,7[16.7 µM],i,
CCCn1cnc2scc(-c3ccc(OC)cc3)c2c1=O,2,2,-12,-5,-5,-3,16,i,
C=CCC[C@@H](Cc1ccc(F)cc1)C(=O)OC[C@@H](NC(=O)[C@H](CC=C)CC(=O)N(CCO)Cc1ccccc1)c1ccccc1,.,.,28,-6,-28,-25,20,.,
CCOC(=O)N1CCN(CC(=O)c2ccc(O)cc2O)CC1,19,18,4,-13,-4,-3,-12,i,
CN1CCN(CC#CCC(O)(c2ccccc2)c2ccccc2)CC1,2,0,3,.,1,0,17,i,
NNC(=O)c1ccc(COc2cccc3ccccc23)cc1,12,8,-16,.,3,2,9,i,
CC(=O)Nc1ccc(N=Cc2ccc[nH]2)cc1,6,-1,-22,-18,9,4,-19,i,

# 2 entries drawn at random from the list so far, as already listed:
SMILES,PABP FP inh,eIF4H inh,CSC inhib,Yeast UUG start,MT1-MMP act inh,MT1-MMP act inh RFP,Env fusion inh,Rce1 inhib,others
CCO[C@@H]1OC(C(=O)N2CCN(Cc3ccc4c(c3)OCO4)CC2)=C[C@H](C2CCCCC2)[C@H]1CCCO,2,8,7,-2&14,-1,-7,7[16.7 µM],i,
Cc1nn(CC(=O)NCCc2cccs2)c(=O)c2cc3ccccc3n12,-10,4,4,-6,3,4,3,i,

# Following part:
SMILES,PABP FP inh,eIF4H inh,CSC inhib,Yeast UUG start,MT1-MMP act inh,MT1-MMP act inh RFP,Env fusion inh,Rce1 inhib,others
Cc1ccc(C(C)C)c(OCCCN2C(=O)NC(C)(C)C2=O)c1,-5,-1,-5,-9,-3,-4,-5,.,
C=CCn1c(SCC(=O)Nc2nc(C)cs2)nnc1C(C)NC(=O)c1ccccc1Cl (stereo not drawn),-6,-11,-8,4,-9,-3,-67,i,
CCCC1C(=O)N(Cc2ccccc2)C(=O)CC1C (stereo not drawn),-4,-2,1,-20,1,2,-3,i,
Cc1ccc2nc(NC(=O)C3CSC4(C)CCC(=O)N34)sc2c1 (stereo not drawn),.,.,3,-12,-5,-2,-25,i,
CC1=CC(C#N)(C#N)C(C#N)(C#N)C(c2ccccc2)N1 (stereo not drawn),102*,102*,-12,.,.,.,.,i,
Cn1ccc(CC(=O)N2CCC(N3CCC(C(=O)N4CCCC4)CC3)CC2)c1,24*,52*,-3,-5,0,8,0,i,eIF4H inh retest=100*;PABP FP inh retest=58*
Cc1c(Cl)cccc1NC(=O)Cn1c(CCC(=O)O)ccc1-c1ccccc1,-4,-1,-9,-15,0,-1,22,i,
COc1ccc(C(=O)N2CCN(CCNC(=O)C(=O)Nc3ccc(Br)cc3)CC2)cc1,10,3,-12,-10,-6,-24,14,i,
CCCCNC(=O)CCn1nc(-c2ccc(Cl)cc2)ccc1=O,0,2,-17,.,4,1,-7,i,
CC(=O)c1ccc(S(=O)(=O)N2CCCCC2C(=O)O)cc1 (stereo not drawn),-8,-2,-12,-2,0,2,-10,i,
COc1cc(/C=N/NC(=O)/C(=C/c2ccccc2)CCO)ccc1O,14,2,1,-16,4,8,-20,i,
Cc1nc(-c2ccc(F)cc2)c(CC(=O)N2CCN(S(=O)(=O)c3ccc(F)cc3)CC2)s1,6,4,6,-9,-5,0,-159,i,
O=C(O)c1cccc2cccnc12,5,-7,-2,-13,-1,0,.,i,
COc1ccc(OC)c(/C=N/NC(=O)CNC(=O)c2cccc3ccccc23)c1,-4,4,-5,11,2,6,-12,i,
COC(=O)C1=C(C)NC(=O)C1(NS(=O)(=O)c1ccc(NC(C)=O)cc1)C(F)(F)F (stereo not drawn),-6,-3,-18,-15,1,9,.,i,
O=C(CCN1CCN(c2ccccc2)CC1)c1ccc(Br)cc1,-5,0,7,-26,-1,2,-1,i,
O=C(c1ccccc1)c1ccc(OCCn2cnc3ccccc3c2=O)cc1,-12,-8,2,-16,1,0,-11,i,
CCn1c(N2CCN(C(=S)NCCc3ccccc3)CC2)nc2ccccc21,4,1,6,-22,5,-9,.,i,
Cn1c(SCC(=O)NCCc2ccccc2)nnc1-c1ccncc1,1,4,-7,13,4,3,-57,i,
O=C(/C=C/c1ccccc1)Nn1c(-c2cccs2)nc2ccccc2c1=O,7,-7,1,.,4,-5,-4,i,
CC(=O)N1CCN(CC(=O)O)CC1,-8,11,.,.,.,.,.,i,
CCOC(=O)C1(CCCc2ccccc2)CCN(Cc2cn(CC)nc2C)CC1,-4,-1,39,.,-1,-9,20,i,
COC(=O)c1cc(NC(=O)c2c(C)noc2C)ccc1N1CCOCC1,-2,-7,-28,-5,-3,3,-12,i,
COc1cc(OC)c(OC)cc1CNCc1ccc2c(c1)OCO2,-6,1,-6,-3,-1,3,2,i,

# Next part; it opens with the seven that closed the last part.
SMILES,PABP FP inh,eIF4H inh,CSC inhib,Yeast UUG start,MT1-MMP act inh,MT1-MMP act inh RFP,Env fusion inh,Rce1 inhib,others
CCn1c(N2CCN(C(=S)NCCc3ccccc3)CC2)nc2ccccc21,4,1,6,-22,5,-9,.,i,
Cn1c(SCC(=O)NCCc2ccccc2)nnc1-c1ccncc1,1,4,-7,13,4,3,-57,i,
O=C(/C=C/c1ccccc1)Nn1c(-c2cccs2)nc2ccccc2c1=O,7,-7,1,.,4,-5,-4,i,
CC(=O)N1CCN(CC(=O)O)CC1,-8,11,.,.,.,.,.,i,
CCOC(=O)C1(CCCc2ccccc2)CCN(Cc2cn(CC)nc2C)CC1,-4,-1,39,.,-1,-9,20,i,
COC(=O)c1cc(NC(=O)c2c(C)noc2C)ccc1N1CCOCC1,-2,-7,-28,-5,-3,3,-12,i,
COc1cc(OC)c(OC)cc1CNCc1ccc2c(c1)OCO2,-6,1,-6,-3,-1,3,2,i,
Cc1cc(NC(=O)CSc2nnc(Cc3cccn3C)n2CCc2ccccc2)no1,-11,-11,-1,-9,3,2,-6,.,
Cc1cccc(NC(=S)N/N=C/c2ccc3c(c2)OCO3)c1,10,3,31,.,0,4,-35,i,
CCCCNC(=O)Oc1ccc(C(=O)N2c3ccccc3NC(=O)C2C)cc1 (stereo not drawn),3,8,-3,-9,-2,2,6,i,
O=C1N/C(=N/N=C/c2ccco2)SC1Cc1ccccc1 (stereo not drawn),-11,4,-4,-19,2,3,-11,.,
CCc1[nH]nc2c1C(c1ccncc1)C(C#N)=C(N)O2 (stereo not drawn),12,-1,-8,-15,1,0,.,i,
Cc1ccc(CNC(=O)CCS(=O)(=O)c2ccc3nc(C)sc3c2)cc1,2,-8,.,-5,7,4,-30,i,
C[C@H](CO)N1C[C@H](C)[C@@H](CN(C)C(=O)Nc2ccc(F)cc2)Oc2cc(Br)ccc2S1(=O)=O,.,.,.,-3&13,2,-1,5,.,
COC(=O)Nc1nc2ccc(Sc3ccccc3)cc2[nH]1,10,2,70,6,16,1,-31,i,
Cc1ccnc(NC(=O)CCC(=O)N(CC(=O)NCc2ccc(F)cc2)Cc2ccccc2)c1,2,-4,-1,-10,-5,0,.,i,
C=CCn1c(SCC(N)=O)nnc1-c1ccccc1O,2,-5,-15,-20,1,5,11,i,
CC(C)(C)N1CC(C(=O)Nc2cccc(Cl)c2Cl)CC1=O (stereo not drawn),-2,0,-10,-2,-1,-1,-1,i,
CCc1ccc(S(=O)(=O)NC(=S)Nc2ccccc2)cc1,-16,-12,26,-21,0,6,21,i,
CC(C)(C)c1ccc(-c2conc2N)cc1,-6,1,.,-30,0,-3,-90,i,
Cc1[nH]c(=O)[nH]c(=O)c1S(=O)(=O)Nc1ccc(S(N)(=O)=O)cc1,-1,2,1,-14,1,1,-15,i,
Cc1ccc(-c2nc3cnccn3c2Nc2ccc3c(c2)OCO3)cc1,-3,3,7,10,2,-4,-15,i,
COc1ccc(/C=C/C(=O)Nc2cc(=O)n(C)c(=O)n2C)cc1,6,-1,-31,-7,1,-4,2,i,
CC(C)(NO)/C(=N\O)c1ccc(Cl)cc1,4,0,-8,11,3,3,.,i,
Cc1ccc(S(=O)(=O)N(C)C)cc1NC(=O)COC(=O)C1COc2ccccc2O1 (stereo not drawn),3,-5,-7,-4,4,5,-8,i,
C[C@H](NC(=O)c1[nH]cnc1C(=O)Nc1ccc(Cl)cc1)C(=O)OC(C)(C)C,-2,4,-24,-8,5,-7,.,i,
CCN1C(=O)[C@H]2[C@@H](c3ccc(C)cc3)N3C(=O)N(c4cccc(Cl)c4)C(=O)[C@@]3(CC)[C@H]2C1=O,.,.,-11,-8,0,0,96*,i,
O=C(Nc1ccc(N2CCOCC2)c(Cl)c1)c1ccccc1F,-5,-2,-16,0,3,1,.,i,
CCOC(=O)C(C(C)C)C(N)Cc1ccc(F)cc1 (stereo not drawn),-3,-14,-4,.,6,10,10,i,
O=C(COC(=O)c1ncc(Cl)c(Cl)c1Cl)NCc1ccccc1,.,.,.,-43,0,3,-5,.,
CC(=O)N1CCc2cc(S(=O)(=O)NCC(=O)NCc3ccc(F)cc3)ccc21,.,.,-8,-16,1,1,0,i,
COC(C(=O)Nc1ccc(S(=O)(=O)Nc2cccc3ccccc23)cc1)c1ccccc1 (stereo not drawn),2,3,32,.,2,0,-13,i,
O=C(/C=C/c1ccc(O)c([N+](=O)[O-])c1)c1ccc2ccccc2c1,4,8,-6,-7,5,-1,1,i,
